GIV Gai3 FP = inhibitors of GIV GBA-motif binding to rat Galpha-i3; P08753; Galpha-i3/FITC-GIV peptide fluorescence polarization, 90 min; hits give low values; scaled: aluminum fluoride 0%, vehicle 100%; percent of control (FP), % (concentration not given with the values); actives 0.42% (n = 210,000); AID 1224905;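 active = replicate mean at 85% of control or lower, very high polarization wells dropped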;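 also: wells of about 15 µL received 100 nL stock; the first replicate is given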
Target sequence (P08753 whole entry, looked up): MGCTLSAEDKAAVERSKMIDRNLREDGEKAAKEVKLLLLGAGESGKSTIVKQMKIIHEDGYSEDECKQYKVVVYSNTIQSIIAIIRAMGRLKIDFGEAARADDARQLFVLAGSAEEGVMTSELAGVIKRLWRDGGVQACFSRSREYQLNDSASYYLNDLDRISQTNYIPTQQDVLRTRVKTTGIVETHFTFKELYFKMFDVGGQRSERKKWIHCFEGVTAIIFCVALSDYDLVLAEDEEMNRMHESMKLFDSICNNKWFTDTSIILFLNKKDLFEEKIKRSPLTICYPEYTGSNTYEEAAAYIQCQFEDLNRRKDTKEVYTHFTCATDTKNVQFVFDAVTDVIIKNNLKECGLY
HCMV UL50-53 inh = disrupts HCMV UL50-UL53 complex binding | inhibition, % (concentration not given with the values) | HTRF UL50-UL53 interaction, normalized percent inhibition | actives 0.15% (n = 190,000);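 active = both replicates at 50% or more, plus weaker picks with an unusually low signal ratio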;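 also: stock transfer was 100 nL into about 20 µL; 0% = negative control wells and 100% = wells with untagged competitor protein; inactives centre near -12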
Sa growth 42C = blocks Staphylococcus aureus growth; S. aureus RN4220 growth, OD600, 20 h, 42 °C; hits give low values; relative growth, % (concentration not given with the values); actives 0.53% (n = 170,000); AID 720641;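 active = growth at 42 °C up to 50% and 20 or more points under that at 30 °C, or under 10% at both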;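 also: 300 nL library stock went into each well; scaled to the means of positive and negative controls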
Sa growth 42C second temp = second read-out of Sa growth 42C, no call of its own (marks repeat the call); relative growth, %; measured here: growth at 30 °C;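 optical density after 20 h as mean of two plates; 100% = untreated growth and lower means inhibition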
* marks the source's active call; other numbers are inactive results; x = not tested or not shown. Compounds as they come; overall some 0.79% were active at least once.

mol | GIV Gai3 FP | HCMV UL50-53 inh | Sa growth 42C | Sa growth 42C second temp
OC(CN1CCN(c2cccc(Cl)c2)CC1)Cn1c2ccccc2c2ccccc21 (stereo unspecified) | 98 | x | 107 | 90
Cc1cc(NC(=O)S(=O)(=O)c2ccccc2)ccc1NC(=O)c1ccco1 | 101 | -29 | 83 | 86
Cc1ccc(-c2ccc(=O)n(CC(=O)NC3CCCCC3C)n2)cc1 (stereo unspecified) | 98 | -16 | 103 | 96
Cc1ccccc1NC(=O)c1nc(-c2ccncc2)no1 | 99 | -1 | 88 | 85
CN(CCC#N)CC1Cc2ccccc2O1 (stereo unspecified) | 104 | -4 | 71 | 91
Cc1ccccc1-c1ccc(N2CCCC(C(=O)NC(C)CCc3ccccc3)C2)nn1 (stereo unspecified) | 97 | -21 | x | x
CCCn1c(=O)n(Cc2c(C)noc2C)c(=O)c2c1nc(C(F)(F)F)n2CCOC | x | -10 | 102 | 93
CN(C)C=Nc1cnn(-c2ccccc2)c(=O)c1Cl | x | 4 | 96 | 95
CCC1CCCCN1c1nc(C)cc(C)n1 (stereo unspecified) | x | -18 | 100 | 88
CC(C)OCCCNC(=O)c1ccc(Cn2c(=O)c3cccn3c3cccnc32)cc1 | 108 | x | 80 | 83
COc1ccc(CNC(=O)Cn2c(SCC(=O)N(C)c3ccccc3)nc3ccccc32)cc1 | 102 | x | 108 | 88
CC(Sc1n[nH]c(-c2cccs2)n1)C(=O)N1CCCC1 (stereo unspecified) | x | 7 | 103 | 96
CC(=O)N1C=Cc2ccccc2C1c1c[nH]c2ccccc12 (stereo unspecified) | 99 | -21 | 136 | 95
O=S(=O)(c1ccc(Cl)cc1)c1nc(-c2cccs2)oc1SCc1ccc(F)cc1 | 98 | -6 | 81 | 89
CC(NC(=O)c1ccccc1)c1nc(Cn2c(=O)oc3ccccc32)no1 (stereo unspecified) | 109 | -11 | x | x
Cc1ccccc1OCc1ccc(-c2nc(C#N)c(NCc3cccnc3)o2)o1 | 99 | -25 | 104 | 67
CC(=O)SC1CCS(=O)(=O)C1 (stereo unspecified) | x | -11 | 113 | 105
Cc1cc(C(=O)Cn2cc(C(F)(F)F)ccc2=O)c(C)n1Cc1ccco1 | x | -15 | 95 | 96
CCN(CC)c1ccc(C(=O)Oc2ccc(C(=O)OC)cc2)cc1 | x | 7 | 105 | 94
C=CCN1C(=O)C(CC(=O)Nc2ccc(OC)cc2)N(Cc2ccco2)C1=S (stereo unspecified) | 106 | 6 | 100 | 96
CCCOc1ccc(NC(=O)CC2C(=O)N(c3ccc(Cl)cc3)C(=O)N2CCc2ccncc2)cc1 (stereo unspecified) | 108 | x | 73 | 37
Cc1cc2nc(-c3ccc(OCc4ccccc4F)cc3)cc(C(F)(F)F)n2n1 | 106 | -22 | 85 | 78
CC(C)NC(=O)c1ccccc1Sc1ccccc1 | 103 | 1 | 89 | 96
COCCCn1c(C)cc(C(=O)Cn2cnc3sc(-c4ccccc4)cc3c2=O)c1C | x | 1 | 112 | 104
CC(C)(C)CC(C)(C)NC(=O)c1cccc(N=Cc2ccccc2O)c1 | 103 | -10 | 111 | 88

2 records drawn at random from the list so far:
mol | GIV Gai3 FP | HCMV UL50-53 inh | Sa growth 42C | Sa growth 42C second temp
CC(C)OCCCNC(=O)c1ccc(Cn2c(=O)c3cccn3c3cccnc32)cc1 | 108 | x | 80 | 83
Cc1ccccc1OCc1ccc(-c2nc(C#N)c(NCc3cccnc3)o2)o1 | 99 | -25 | 104 | 67

Going on with the list.
mol | GIV Gai3 FP | HCMV UL50-53 inh | Sa growth 42C | Sa growth 42C second temp
COc1cccc(-c2cc(C(=O)Nc3cc(Cl)ccc3O)on2)c1 | 112 | x | 86 | 86
COc1ccc(C2CC(=O)N(Cc3cccc(C)c3)c3c2c(C)nn3-c2nc(C)cc(C)n2)c(OC)c1 (stereo unspecified) | 101 | -8 | 107 | 88
CCOc1ccc(C(=O)Nc2ccc(NC(=O)c3ccccc3)c(C)c2)cc1Br | 109 | x | 75 | 83
Cc1ccc2cc3c(nc2c1)N(C(=O)C1CC1)CC3 | 104 | 0 | x | x
CCOC(=O)Cn1c2c(c(C(F)(F)F)cc1=O)C(=O)CCC2 | 113 | -17 | 102 | 95
CCN(CC)c1ccc(/C=C(/C#N)C(=O)NC(C)C)o1 | -102* | -162 | 95 | 72
CC(=O)Nc1ccc(C(=O)N2CCCC2)cc1 | 102 | 0 | 100 | 85
Cc1ccc2oc(C(=O)Nc3ccc(C)c(C)c3)cc(=O)c2c1 | 99 | x | 103 | 88
O=C(Nc1cccc(CCc2nc3ccccc3[nH]2)c1)c1[nH]nc2c1COc1ccccc1-2 | 113 | -22 | x | x
CCOc1ccc(NC(=O)C2CCN(c3nnc(-n4c(C)ccc4C)s3)CC2)cc1 | 101 | -18 | 103 | 83
Cc1ccc2oc(=N)c3c(N)nc(-c4ccc5c(c4)OCO5)cc3c2c1 | x | -1 | 111 | 106
Cn1nnnc1SC1CCCCN(C(=O)c2ccc(F)cc2)C1=O (stereo unspecified) | x | -2 | 91 | 91
N#Cc1ccccc1NC(=O)c1cccs1 | 101 | -2 | 98 | 74
O=C(CCN1C(=O)/C(=C/c2cccs2)SC1=S)NC12CC3CC(CC(C3)C1)C2 | 112 | -29 | x | x
Cc1ccc(Cn2c(Sc3ncccn3)nc3c2c(=O)[nH]c(=O)n3C)cc1 | 113 | 2 | x | x
CCOc1ccc(NC(=O)c2ncoc2-c2cccc(Cl)c2)cc1 | 105 | -16 | x | x
O=c1c2ccccc2n2c(=O)n(Cc3ccc(F)cc3)nc2n1Cc1ccc(F)cc1 | 101 | -13 | x | x
CN(C)c1ccc(/C=c2\sc3c(C#N)cc(C(=O)c4ccccc4)n3c2=O)cc1 | x | -11 | 97 | 84
CC(=O)NC1(c2ccc(C)cc2)CCN(CC(=O)NC2CC2)CC1 | 101 | -27 | 92 | 91
O=c1cc(-c2ccccc2)nc(Nc2ccccc2)[nH]1 | 121 | -1 | x | x
COc1cccc(OC)c1Cn1nnc2c(=O)[nH]c(C3CCN(C(=O)c4ccccc4)CC3)nc21 | 106 | 11 | 11 | 24
O=C(N1CCN(c2ccccc2)CC1)N(c1ccccc1)c1ccccc1 | 104 | -5 | 72 | 44
CC(=O)Nc1ccc(NC(=O)CNc2ccc(Br)cc2)cc1 | x | -15 | 95 | 102
CCOc1ccc(NC2SC(=O)NC2=O)cc1 (stereo unspecified) | 104 | 0 | 101 | 95
COc1ccc(-c2cc(C(=O)NCc3ccc4c(c3)OCO4)c3ccccc3n2)cc1 | 105 | -1 | x | x

(more compounds)
Every second line gives: GIV Gai3 FP, HCMV UL50-53 inh, Sa growth 42C, Sa growth 42C second temp
- Cc1ccc(S(=O)(=O)Nc2c(C)nc3nc[nH]n3c2=O)c(C)c1
    98, -2, x, x
- CCOc1cc(C(=O)Nc2ccc3oc(-c4ccc(CC)cc4)nc3c2)cc(OCC)c1OCC
    106, -29, 103, 81
- Cc1cc(C)cc(NS(=O)(=O)c2cn(C)c(=O)n(C)c2=O)c1
    109, -6, 107, 100
- Fc1ccccc1N1CCN(c2ncnc3[nH]ncc23)CC1
    x, 0, 86, 89
- O=c1[nH]c2ccc(NS(=O)(=O)Cc3ccccc3)cc2o1
    107, -2, 112, 92
- O=C1CC(c2ccccc2)Nc2ccc3ccccc3c21 (stereo unspecified)
    101, -19, 115, 84
- CCOc1cccc(C(=O)Nc2cc3nn(-c4ccccc4)nc3cc2C)c1
    103, x, 92, 81
- CCOc1ccc(N=C2C(=O)N(CN3CCCC(C)C3)c3ccccc32)cc1 (stereo unspecified)
    106, -7, 94, 91
- CCOC(=O)c1ccc2c(c1)nc(C(C)C)n2CC
    x, -18, 100, 79
- CCn1c(C(=O)NCc2ccccn2)cc2c(=O)oc3ccccc3c21
    102, -4, x, x
- CCC(C(=O)Nc1ccc(OC)cc1)n1nc(-c2ccccc2)c2c(c1=O)CCCC2 (stereo unspecified)
    100, -8, x, x
- CCCCN(C)C(=O)c1cc2cccnc2n(Cc2ccccc2)c1=O
    107, 4, x, x
- CCOc1ccc(NC(=O)CN2C(=O)CC(C)Sc3ccccc32)cc1 (stereo unspecified)
    102, -29, 90, 82
- CCOCCCNC(=O)c1ccc(NC(=O)N2CCCCc3ccccc32)cc1
    96, x, 105, 89
- CCc1cc2c(cc3c(=O)n(CC(=O)N4CCC(C)CC4)nc(CC)n32)s1
    100, -26, 87, 79
- CCCCN(S(C)(=O)=O)S(=O)(=O)c1ccc(OC)cc1
    x, -6, 107, 90
- CCCc1nc(Nc2ccccc2)[nH]c(=O)c1Br
    100, -34, x, x
- O=C(Cc1ccccc1)NCCSCc1ccco1
    105, 14, 85, 102
- COc1cccc(CN2c3ccccc3-c3nc(SCC(=O)Nc4ccccc4Cl)ncc3S2(=O)=O)c1
    106, -5, 105, 96
- CCC(C)NC(=O)c1ccc(Cn2c(=O)c3cccn3c3cccnc32)cc1 (stereo unspecified)
    106, x, 98, 99
- Cc1cccc(CSc2nc(-c3cccc(C)c3)nc3c2Cc2c(CO)cnc(C)c2O3)c1
    102, x, 115, 83
- COc1cccc(Nc2ccc(-n3ccnc3)nn2)c1
    112, -39, 106, 100
- Brc1ccc2c(c1)CN(C1CCCCC1)CO2
    99, x, 106, 87
- CCOC(=O)c1cc2c(=O)n3ccccc3nc2n(CC)c1=N
    110, -114, 88, 83
- N#CC(C#N)=C1C=C2C=C(N3CCCC3)CCC2CC1 (stereo unspecified)
    x, -7, 100, 95
- Cc1ccsc1C(=O)N(CC(=O)Nc1ccccc1C(F)(F)F)Cc1ccco1
    x, -19, 91, 94
- Cc1cccc(NC(=O)CN2CCN(C(=O)c3cc(C4CC4)nn3-c3ccccc3)CC2)c1C
    x, -17, 75, 79
- O=C(c1cccc2c1C(=O)N(Cc1cccnc1)C2)N1CCN(Cc2ccccc2)CC1
    106, x, 101, 101
- Cc1nc2c(C(=O)Nc3ccc(N4CCC(O)CC4)cc3)snc2c(=O)[nH]1
    100, -42, 103, 82
- CCOc1ccc(NC(=O)c2c(NC(=O)Cc3ccccc3)sc3c2CCC(C)C3)cc1 (stereo unspecified)
    102, -35, 83, 86

Brought forward from above: four entries; new compounds follow.
Every second line gives: GIV Gai3 FP, HCMV UL50-53 inh, Sa growth 42C, Sa growth 42C second temp
- Cc1cccc(NC(=O)CN2CCN(C(=O)c3cc(C4CC4)nn3-c3ccccc3)CC2)c1C
    x, -17, 75, 79
- O=C(c1cccc2c1C(=O)N(Cc1cccnc1)C2)N1CCN(Cc2ccccc2)CC1
    106, x, 101, 101
- Cc1nc2c(C(=O)Nc3ccc(N4CCC(O)CC4)cc3)snc2c(=O)[nH]1
    100, -42, 103, 82
- CCOc1ccc(NC(=O)c2c(NC(=O)Cc3ccccc3)sc3c2CCC(C)C3)cc1 (stereo unspecified)
    102, -35, 83, 86
- O=C1C(C=NCCc2c[nH]c3ccccc23)=C(O)c2ccccc21
    100, x, 102, 80
- CCC1=Nc2cc(C(=O)NCc3ccccc3OC)ccc2Sc2ccc(Cl)cc21
    103, x, 102, 86
- Cc1ccc(NC(=O)c2cccc3c(=O)c4c([nH]c23)CCCC4)c(C)c1
    101, -20, 97, 83
- O=S(=O)(NCc1ccco1)c1cccc2cccnc12
    107, -20, 92, 83

Record cards (already shown). Order of values: GIV Gai3 FP	HCMV UL50-53 inh	Sa growth 42C	Sa growth 42C second temp
Cn1nnnc1SC1CCCCN(C(=O)c2ccc(F)cc2)C1=O (stereo unspecified) is entered as x	-2	91	91
CC(C)OCCCNC(=O)c1ccc(Cn2c(=O)c3cccn3c3cccnc32)cc1 is entered as 108	x	80	83
COc1ccc(C2CC(=O)N(Cc3cccc(C)c3)c3c2c(C)nn3-c2nc(C)cc(C)n2)c(OC)c1 (stereo unspecified) is entered as 101	-8	107	88

Source: PubChem BioAssay
